# HSD17B inh – inhibitors of human HSD17B10 dehydrogenase; Q99714; recombinant HSD17B10, NADH fluorescence kinetic; many of its hits are not listed in these tables; Potency, µM (series often up to 57.1 µM), inactives show top-dose activity change, negative = inhibition, actives largely listed as inhibitors; 75,000 compounds, 7.6% hits; active means well fitted inhibition curve with a large enough effect; inconclusive means small, poorly fitted or top-dose-only effect; inactive means no such curve, though single readings can be large or run the other way;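 further: the protocol describes HADH2 (HSD17B10) and not the HSD17B4 of the title; nearly all actives have a fitted effect of over 70% in size; most hits overshoot -100% by far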
#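 20 nM HADH2, pH 9.0 Tris/Tween; cpd preinc 15 min RT; start w/ 1 mM NAD+ + 90 uM b-hydroxybutyryl-CoA; kinetic fluor ex360/em450 q30s x 4 min; delta last-first.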
# * marks the source's active call; other numbers are inactive results; ? = inconclusive; & = joins results of further samples; [ ] = another dose, or the depositor's remark. On the % scale 0 is the no-effect control and ±100 the full control effect; potency means the concentration at half of the fitted maximal effect. A portion of the library; rates above refer to the full screens.
SMILES,HSD17B inh
O=C1OCCC1Sc1ncnc2sccc12 (stereo not drawn),-9%
Cc1noc(C)c1C(=O)N1CCC2(CCCN(Cc3nccs3)C2)CC1,-1%
O=C(CN1CCN(S(=O)(=O)c2ccccc2)CC1)Nc1ccc2c(c1)OCO2,3%
Cn1c(=O)c2c(nc(Cc3ccccc3)n2CC(=O)O)n(C)c1=O,6%[11.4 µM]
CCOC(=O)OCC1OC(C#Cc2ccc(C)cc2C)C=CC1OC(=O)OCC (stereo not drawn),-7%[11.4 µM]
Cc1cccc(-n2c(N)cc(=O)nc2SCC(=O)Nc2ccccc2)c1,-7%
CCn1c(SCc2nc3cc(OC)c(OC)cc3c(=O)[nH]2)nnc1-c1ccncc1,3%
COC(=O)[C@H](C)NC(=O)[C@@H](C)CO,3%[11.4 µM]
CCOc1cc(C(=O)Nc2ccc(S(=O)(=O)Nc3cc(C)on3)cc2)cc(OCC)c1OCC,-1%
Cn1c(=O)c2c(nc(CN3CCN(c4ccccc4)CC3)n2CCCc2ccccc2)n(C)c1=O,4%
C=CCn1c(SCc2cc(C(=O)OC)c(C)o2)nnc1-c1ccncc1,-13%
CC(C)C(=O)Cc1ccc2ccccc2n1,-2%[11.4 µM]

# The last 2 compounds of the part before come first, to join the parts.
SMILES,HSD17B inh
C=CCn1c(SCc2cc(C(=O)OC)c(C)o2)nnc1-c1ccncc1,-13%
CC(C)C(=O)Cc1ccc2ccccc2n1,-2%[11.4 µM]
CCCNC(=O)Cc1ccsc1,-4%
COCCNC(=O)CSc1ccc(C)cc1,-3%
CCn1c(=O)cc(OCC(=O)NCCCN2CCN(c3cccc(Cl)c3)CC2)c2ccccc21,?
COCCNC(=O)COc1ccc(OCCNC[C@@H](O)COc2ccccc2)cc1,0%
Cc1ccc(O)c(N=CC2=C(O)c3ccccc3C2=O)c1,?
CC(C)n1c2ccccc2c2nnc(SCC(=O)OCN3C(=O)c4ccccc4C3=O)nc21,-27%
NC(=O)C1CCN(C(=O)c2ccc(CS(=O)(=O)c3c(Cl)cccc3Cl)o2)CC1,0%
COC(=O)C1(C(F)(F)F)N=C(N(C)C)OC(N(C)C)=N1,12%
CCOC(=O)C1CCCN(CC(O)COc2ccc(OC)cc2C(C)(C)C)C1 (stereo not drawn),-17%
COc1ccc(C(=O)COC(=O)c2ccco2)cc1,1%
COc1ccc(S(=O)(=O)NCC(c2cccnc2)N2CCN(c3ccccc3)CC2)cc1C (stereo not drawn),-2%
CCOc1ccc(NC2c3ccccc3C(=O)N2c2ccc(Cl)cn2)cc1 (stereo not drawn),0%
O=C(NC1(C(F)(F)F)N=C2SCCN2C1=O)C1CCCCC1 (stereo not drawn),6%
CCC(=O)Nc1cnc(NC(=O)c2cccc(F)c2)cc1C,16%
O=C(O)CCC(=O)N1CCN(c2ccccn2)CC1,32µM*
CC(C)c1nnc(NC(=O)CCC(=O)NCc2ccc3c(c2)OCO3)s1,-3%
CCOc1cccc(-c2nn3c(-c4cc(C)[nH]n4)nnc3s2)c1,3%
COc1ccccc1NC(=O)Cn1nnc(-c2ccccc2NC(=O)c2ccco2)n1,?
Cc1c(NC(=O)c2ccc(COc3ccc4ccccc4c3)o2)c(=O)n(-c2ccccc2)n1C,1%
Cc1[nH]nc2c1C1(CCOC1C)C(C#N)=C(N)O2 (stereo not drawn),12%
O=C(CN1CCC(NC(=O)c2ccccc2)CC1)NCc1ccccc1F,1%
COC(=O)Cn1c2ccc(F)cc2c2nc(C)sc21,-5%
O=C(NC1=NCCS1)c1cccs1,4%
CC(=O)C1=C(O)CCC1=N,11%
O=C(c1ccncc1)N1CCC2(CC1)CN(c1ncccn1)C2,?
COCCN1C(=O)C(O)=C(C(C)=O)C1c1ccc(OC)c(OC)c1 (stereo not drawn),0%
Cc1cc(C)cc(OCC(=O)Nc2ccc(N3CCCC3)cc2)c1,-11%
CC1Cc2ccccc2N1CC(=O)NC(=O)NCc1ccco1 (stereo not drawn),-3%
O=C(CN(Cc1ccco1)C(=O)c1cc(=O)[nH]c2ccccc12)Nc1ccccc1C(F)(F)F,?
CS(=O)(=O)Nc1cccc(-c2ccc3ncnc(NC4CC4)c3c2)c1,3%
CCOc1ccc(OCCCCN(C)C)cc1,1%
CN(C)c1ccc(-c2nccc(NCc3cccs3)n2)cc1,20µM*
O=C(NCc1ccco1)C(c1ccccc1F)N(CC1CCCO1)C(=O)Cn1nnc2ccccc21 (stereo not drawn),11%
COC(=O)c1cc(C(=O)OC)cc(N2C(=O)CC(N3CCN(c4ccccc4)CC3)C2=O)c1 (stereo not drawn),-3%
Cc1nn(-c2ccc(F)cc2)c2sc(C(=O)OC3CCOC3=O)cc12 (stereo not drawn),25µM*
Cc1ccc2cc(CN(CC3CCCO3)C(=O)c3ccco3)c(=O)[nH]c2c1C (stereo not drawn),-3%

# Quoted from the results shown, five compounds:
SMILES,HSD17B inh
CN(C)c1ccc(-c2nccc(NCc3cccs3)n2)cc1,20µM*
O=C(NCc1ccco1)C(c1ccccc1F)N(CC1CCCO1)C(=O)Cn1nnc2ccccc21 (stereo not drawn),11%
COC(=O)c1cc(C(=O)OC)cc(N2C(=O)CC(N3CCN(c4ccccc4)CC3)C2=O)c1 (stereo not drawn),-3%
Cc1nn(-c2ccc(F)cc2)c2sc(C(=O)OC3CCOC3=O)cc12 (stereo not drawn),25µM*
Cc1ccc2cc(CN(CC3CCCO3)C(=O)c3ccco3)c(=O)[nH]c2c1C (stereo not drawn),-3%

# (listing goes on)
SMILES,HSD17B inh
COc1ccc(CNC(=O)c2cc3c(=O)n4ccccc4nc3n(CC3CCCO3)c2=N)cc1 (stereo not drawn),?
Cc1ccc(-c2ccc(CCC(=O)O)n2CC(=O)O)cc1,25µM*
CCCS(=O)(=O)N1CCCC(C(=O)NCCCN2CCN(c3ccccc3F)CC2)C1 (stereo not drawn),9%
NC(=O)NCC1CC1,14%
O=C(Nc1ccccc1)N1CC[C@@]2(CCCN(C(=O)c3cc(C(F)(F)F)cc(C(F)(F)F)c3)C2)C1,-2%
Cc1c(NC(=O)c2ccc3c(c2)OCO3)cccc1-c1nc2ncccc2o1,-5%
CCOC(=O)c1ccc(NC(=O)c2cc(S(=O)(=O)N3CCOCC3)ccc2O)cc1,-29%
C=CCn1c(C)cc(C(=O)CSc2nc3ccccc3c(=O)[nH]2)c1C,-13%
CC(Sc1nncn1C)C(=O)Nc1ccccc1-c1ccccc1 (stereo not drawn),6%
C=C1CC(C)OC(c2ccccc2OCC(O)CN2CCCCC2)C1 (stereo not drawn),5%
Cc1ccc(OCCSc2cc(C)nc(N)n2)cc1,-6%
O=C(NCCN1CCCCCC1)C1CCC(CNS(=O)(=O)c2cccc3cccnc23)CC1 (stereo not drawn),1%
O=C(COC(=O)C1CCN(S(=O)(=O)c2cccs2)CC1)c1ccc2c(c1)OCCO2,0%
COc1cccc(Nc2ncc3nc(C)c(=O)n(C4CC4)c3n2)c1,-1%
COc1ccccc1N1CCN(C(=O)CSc2nnc(-c3ccoc3C)o2)CC1,-20%
O=C(NC[C@@H]1CCCCN1)c1cc(OCC(F)(F)F)ccc1OCC(F)(F)F,4%[25.6 µM]
O=C(c1cnn(-c2nc3ccccc3s2)c1)c1ccccc1O,7%
CCCSc1nc(N)c2c3c(sc2n1)CN(C)CC3,-5%
Cc1cccc2c(=O)c(C(=O)N3CCCCCC3)c[nH]c12,-3%
COC(=O)Nc1ccc(S(=O)(=O)N2CCN(C)CC2)cc1,0%
O=C1c2ccccc2OCOc2ccccc21,-7%
O=C(O)CS(=O)c1ccc2c3c(cccc13)C(=O)c1ccccc1-2 (stereo not drawn),-3%[11.4 µM]
Cc1cccc(NC(=O)CS(=O)(=O)c2cn(C)c3ccccc23)c1C,7%
COc1cc2c(cc1NC(=O)c1ccco1)CCCC2,-10%
Cc1[nH]c2ccccc2c1/C=N/n1cnnc1,2%
O=C(NC1CCS(=O)(=O)C1)c1ccccc1C(=O)c1ccccc1 (stereo not drawn),8%
Cc1sc2nc(N)sc2c1C,4%
O=S(=O)(c1ccc(C2=CSC3=NCCN23)cc1)N1CCOCC1,-18%
O=C(NCc1ccc2c(c1)OCO2)C1CCN(S(=O)(=O)c2cccc3nsnc23)CC1,4%
N#Cc1nc(-c2cccs2)oc1N1CCN(Cc2ccccc2)CC1,32µM*
c1ccc(Nc2cc(Nc3ccccc3)[nH]n2)cc1,-6%
CC(CC(=O)O)CC(=O)Nc1ccccc1C(=O)O (stereo not drawn),?
COCCCn1c(SCC(=O)n2c(C)c(C)c3ccccc32)nnc1-c1ccoc1C,?
CC1Cc2cc(-c3csc(NC(=O)Cc4cccs4)n3)ccc2N1S(C)(=O)=O (stereo not drawn),-11%
Cc1nc(N=Nc2ccc(S(=O)(=O)O)cc2S(=O)(=O)O)c(COP(=O)(O)O)c(C=O)c1O,-16%&1%
O=C1c2ccccc2-c2nc3ncnn3c(-c3ccccc3)c21,9%
Cc1nc(C)c(C(=O)Nc2cccc(Cl)c2)o1,-23%
COC(=O)c1ccc(N/C(C)=C/C(=O)c2ccc(C)o2)cc1,0%
COc1ccc(C2N(C(=O)CN3CCOCC3)CCN2S(=O)(=O)c2ccccc2)cc1 (stereo not drawn),10%
Cc1cc(N2CCN(c3cccc(C(F)(F)F)c3)CC2)n2ncnc2n1,12%
CC1CCN(c2ccc(C(=O)O)cc2)CC1,-3%
Cc1cc(C(=O)NNCc2ccccc2)no1,1%[25.6 µM]
Clc1ccc(Cl)c(Cl)c1Cl,1%
CCN(C(=O)c1cn(C)c(=O)c2cc(OC)c(OC)cc12)c1cc(C)ccc1C,-30%
O=C1CC(O)(C(F)F)Oc2ccc3ccccc3c21 (stereo not drawn),32µM*
COC(=O)Nc1sc2c(c1C(=O)NCc1ccco1)CCC2,-5%
CN(CCC#N)C(=O)Cn1nc(Cc2ccncc2)c2ccccc2c1=O,14%
COc1ccccc1N(CN1C(=O)c2ccccc2C1=O)C(=O)c1cccnc1,12%
COCCNC(=O)CN(C(=O)Cn1nnc2ccccc21)c1ccc(F)c(Cl)c1,0%
Cc1ccc(C(=O)O)cc1S(=O)(=O)N1CCOCC1,4%
O=c1oc2ccccc2n1CSc1nc2ccccc2s1,10%
CCCCOc1ccc(C(=O)OC(C)CN(C)C)cc1 (stereo not drawn),-5%
COc1ccc2[nH]cc(CCNc3ncncc3-c3ccccc3C(F)(F)F)c2c1,6%
COc1ccccc1NC(=O)Cn1nnc(-c2ccccc2NC(=O)c2cccs2)n1,32µM*
OC(COc1ccc2cc(Br)ccc2c1)CN1CCN(c2ccccn2)CC1 (stereo not drawn),-1%
Cc1c(C)[n+](=O)c(-c2ccc(F)cc2)c(C)n1[O-],-1%
COc1ccc(CN(C(=O)CN2C(=O)COc3ccccc32)C2CCCC2)c(OC)c1,1%
CCCCCOC(=O)Nc1ccc(S(=O)(=O)Nn2cnnc2)cc1,13%
CSCCC1NC2(C(=O)Nc3c2ccc(Cl)c3C)[C@@H]2C(=O)N(C3CCCC3)C(=O)[C@H]12 (stereo partly drawn),-6%
Cc1c(O)ccc(C(=O)COc2ccccc2F)c1O,-13%
# Next records
SMILES,HSD17B inh
Oc1c(C(c2ccccc2)N2CCCCC2)sc2ncnn12 (stereo not drawn),2%
CCOC(=O)Cc1cc(=O)n2[nH]c(C)c(-c3ccc(OC)cc3)c2n1,?
O=c1oc2ccccc2c2c1ncn2-c1ccccc1,4%
CCOC(=O)CSc1nnc(CNc2cccc(Cl)c2)n1-c1ccccc1,3%
Cc1ccc(NC(=O)Cn2nnc(C(=O)Nc3ccc(C)c(C)c3)c2N)cc1,2%
CCOC(=O)C(C)Sc1nc2c(c(=O)[nH]c(=O)n2C)n1CCc1ccccc1 (stereo not drawn),-6%
Cc1ccc(S(=O)(=O)NC(C)C(=O)Nc2ccc(C(N)=O)cc2)cc1 (stereo not drawn),2%
CC(=O)NCCNc1nc(-c2cccnc2)nc2ccccc12,8%
O=C(Nc1sc2c(c1C(=O)O)CCC2)c1cccs1,-9%
COc1ccc(CNC(=O)CCCCCn2c(SCC#N)nc3cc4c(cc3c2=O)OCO4)cc1,-18%
C/C(CCN1CCCc2nc(C)c(C)cc21)=N\OC[C@@H](O)[C@@H]1O[C@@H]2OC(C)(C)O[C@@H]2[C@H]1O,?
c1ccc2sc(N3CN(CCN4CCOCC4)CN(c4nc5ccccc5s4)C3)nc2c1,-1%

# Some of the entries above, set out differently:
mol | HSD17B inh
c1ccc2sc(N3CN(CCN4CCOCC4)CN(c4nc5ccccc5s4)C3)nc2c1 | -1%
CCOC(=O)C(C)Sc1nc2c(c(=O)[nH]c(=O)n2C)n1CCc1ccccc1 (stereo not drawn) | -6%
CCOC(=O)CSc1nnc(CNc2cccc(Cl)c2)n1-c1ccccc1 | 3%

# The list goes on.
SMILES,HSD17B inh
CC(C)N(CCNC(=O)C1CCN(S(=O)(=O)N2CCOCC2)CC1)Cc1ccccc1,-5%
COc1cc(NC(=O)c2cc3nc(C)cc(C)n3n2)c(OC)cc1Cl,25µM*
COc1cc(Cl)c(C)cc1NC(=O)COc1cc(C)nc(C(C)C)n1,-2%
N#CCSc1nc2ccccc2c(=O)n1CCC(=O)NCCc1ccccc1,9%
Cn1c(Cn2c(=O)sc3ccccc32)nnc1SCC(=O)NCc1ccc(F)cc1,6%
O=C(Cc1c(F)cccc1Cl)N1CCN(C(=O)c2ccco2)CC1,10%
C=CCc1ccccc1OCCCCN1CCCC1,-1%
